Screens from PubChem.
Sa growth inh: blocks Staphylococcus aureus growth | relative growth, % (test concentration not listed) | S. aureus RN4220 growth, OD600, 20 h, 42 °C; active compounds read low | hit rate 0.53% among 170,000;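 active = growth at 42 °C up to 50% and 20 or more points under that at 30 °C, or under 10% at both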;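 also: 300 nL library stock went into each well; scaled to the means of positive and negative controls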
HCMV NEC inh: disrupts HCMV UL50-UL53 complex binding | HTRF UL50-UL53 interaction, normalized percent inhibition | inhibition, % (test concentration not listed) | hit rate 0.15% among 190,000 | AID 1918969;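 active = both replicates at 50% or more, plus weaker picks with an unusually low signal ratio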;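 also: stock transfer was 100 nL into about 20 µL; 0% = negative control wells and 100% = wells with untagged competitor protein; inactives centre near -12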
GIV-Gai inh: inhibitors of GIV GBA-motif binding to rat Galpha-i3. hit rate 0.42% among 210,000. percent of control (FP), % (test concentration not listed). Galpha-i3/FITC-GIV peptide fluorescence polarization, 90 min; active compounds read low; scaled: aluminum fluoride 0%, vehicle 100%. P08753;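 active = replicate mean at 85% of control or lower, very high polarization wells dropped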;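 also: lower values mean more displacement of the GIV peptide from Galpha-i3; wells of about 15 µL received 100 nL stock; the first replicate is given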
Target sequence (P08753 whole entry, looked up): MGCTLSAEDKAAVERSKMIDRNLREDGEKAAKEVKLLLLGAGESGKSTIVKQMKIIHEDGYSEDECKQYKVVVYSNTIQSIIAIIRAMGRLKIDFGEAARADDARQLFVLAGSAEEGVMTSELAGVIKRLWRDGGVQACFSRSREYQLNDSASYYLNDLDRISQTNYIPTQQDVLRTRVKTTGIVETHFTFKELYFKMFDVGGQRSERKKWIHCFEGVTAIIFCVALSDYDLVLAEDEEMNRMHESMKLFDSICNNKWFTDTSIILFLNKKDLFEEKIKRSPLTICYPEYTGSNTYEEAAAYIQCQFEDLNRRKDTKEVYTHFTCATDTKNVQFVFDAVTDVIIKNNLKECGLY
Sa growth inh second temp: also measured in Sa growth inh; calls as there; relative growth, %; measured here: growth at 30 °C;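 optical density after 20 h as mean of two plates; 100% = untreated growth and lower means inhibition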
* hit, by the source's call; . = not tested or not shown; & = joins results of further samples.

SMILES	Sa growth inh	Sa growth inh second temp	HCMV NEC inh	GIV-Gai inh
O=C(NCc1cccnc1)c1cnc2sc(N3CCCCC3)nn2c1=O	.	.	-17	98
N#Cc1cc2c(cc1C#N)Oc1ccccc1O2	91	91	-4	99
Fc1ccc(NC(=S)NC23CN4CN(CN(C4)C2)C3)cc1	104	78	-12	104
COc1cccc(-c2cc(C(=O)Nc3ccc(F)cc3)[nH]n2)c1	92	96	.	106
Cc1ccc(Cl)cc1N1CCN(C(=O)c2ccc3c(c2)N(Cc2ccccc2F)C(=O)c2ccccc2S3(=O)=O)CC1	102	90	-12	101
O=C(N/N=C1\C/C(=N\NC(=O)c2ccncc2)c2ccccc21)c1ccncc1	81	61	-4	.
Cc1ccnc(NC(=O)NCCCSc2nnnn2-c2ccccc2)n1	92	85	-31	104
O=C(CN(c1ccc2c(c1)OCCO2)S(=O)(=O)c1ccccc1)NC1CC1	104	80	-10	106
COc1ccccc1C(=O)Nc1cc(-c2ccc(C)cc2)no1	107	76	-16	102
CCOC(=O)C1CCN(c2c(Nc3ccc(OC)c(OC)c3)c(=O)c2=O)CC1	.	.	-86	102
CC1CCN(Cc2c(O)ccc3cc(-c4nc5ccccc5s4)c(=O)oc23)CC1	.	.	-45	-32*
Cc1nc(NC(=O)c2ccc(F)cc2)nc2cc3c(cc12)OCO3	117	110	-7	108
c1cncc(N=c2scc(-c3cccs3)n2CCCn2ccnc2)c1	106	76	-86	.
CCN(Cc1ccc(OC)c(F)c1)c1nc(C(F)(F)F)nc2ccccc12	76	88	-5	.
NC(=O)C1CCN(C(=O)Nc2cc3ccccc3s2)CC1	85	89	-9	96
CCOC(=O)Cc1nn(Cc2nc(-c3ccccc3)cs2)c(=O)c2ccccc12	104	90	1	103
O=C(NCCc1ccccc1F)c1ccc2ccccc2c1	112	89	.	102
COc1cc(CNCc2cccnc2)ccc1OCC(N)=O	93	90	8	.
CC(C)C(=O)Nc1ccc(Br)cc1	100	81	-19	103
CCOC(=O)N1CCN(C(=O)c2ccc(CNS(=O)(=O)c3ccc(NC(C)=O)cc3)cc2)CC1	110	98	.	98
Cc1ccc(CC23CN4CCN(CC(C4)C2O)C3)c(C)c1 (stereo unspecified)	82	77	-19	98
O=C(c1ccco1)c1coc2ccc(O)cc12	100	86	0	103
CCOc1ccc(-c2c(C)nn3c(C)c(C(=O)Nc4cc(Cl)c(OC)cc4OC)cnc23)cc1OCC	.	.	-19	101
Cc1cccc(-c2nc3cc(NC(=O)c4cccc(F)c4)ccc3o2)c1	101	75	-3	98
Cn1c(O)c(N=Nc2ccc(C(F)(F)F)cc2)c(=O)n(C)c1=O	88	81	-63	111

The list continues.
SMILES	Sa growth inh	Sa growth inh second temp	HCMV NEC inh	GIV-Gai inh
CC(NC(=O)C1CCN(C(=O)c2cc3sccc3n2Cc2ccc(F)cc2)CC1)c1ccccc1 (stereo unspecified)	120	77	.	108
COc1ccc(CNC(=O)C2(c3cccs3)CCOCC2)cc1	122	82	.	100
Cc1cc2nc(NC3CCS(=O)(=O)C3)c3ccccc3n2n1 (stereo unspecified)	99	97	-1	.
N=c1oc2ccc3ccccc3c2cc1-c1nnc2n1CCCCC2	89	81	-67	.
CN(C)c1ccc(CNC(=O)CN2C(=O)C3CCCCN3c3ccc(C(=O)N4CCCC4)cc32)cc1 (stereo unspecified)	103	90	.	100
Cc1cc(C)c(S(=O)(=O)Nc2cc(C(=O)O)cnc2N2CCCC2)cc1C	.	.	-25	140
CC(C)CCNC(=O)CSc1nc2ccccc2nc1Cc1ccc(Cl)cc1	93	92	.	101
Cc1ccc(NC(=O)N2CCN(c3nnc(C)c4c(C)n(-c5ccccc5)nc34)CC2)c(Cl)c1	103	91	-14	105&105
C/C(N)=C/C(=O)N1CCCCC1	106	103	-12	98
Cc1sc2ncc(C(=O)NCC(C)C)c(=O)n2c1C	.	.	-24	104
NS(=O)(=O)c1ccc(-c2ccc(/C=N/NC(=O)COc3ccc(F)cc3)o2)cc1	101	41	-63	.
CCN(CC)C(=O)Cn1c(=O)n(Cc2ccc(C(=O)NCc3ccc(C)cc3)cc2)c(=O)c2ccccc21	86	95	-11	105
N#Cc1c(N2CCCC2)nc(N)c2c(N)nc(N3CCCC3)cc12	97	92	97*	.
COc1cc2[nH]c(=O)n(CCCCCC(=O)N3CCN(c4cccc(C)c4C)CC3)c(=O)c2cc1OC	80	73	-35	99
CN(C)c1ccc(C(CNC(=O)c2ccc3c(c2)OCO3)N(C)C)cc1 (stereo unspecified)	.	.	-10	103
N#C/C(=C\c1c(Oc2ccccc2)nc2ccccn2c1=O)C(=O)NCc1ccco1	87	84	-55	81*
O=C(c1noc2c1CCCC2)N(C1CCCCC1)C1CCCCC1	111	99	.	102
O=C(NCCc1c[nH]c2ccccc12)c1cccn1-c1cccnc1	.	.	-5	115
CN(CC(=O)O)Cc1cccnc1	98	95	-13	103
Fc1ccc(-c2nnn3c2nc(NCc2ccccc2)c2ccccc23)cc1	115	88	-28	105
O=C(ON1C(=O)CCC1=O)c1ccccc1Cl	103	90	-6	110
Cc1cc(=O)n(-c2nc(-c3ccccc3)cs2)[nH]1	81	37	-8	96
O=C(C1CCC(Cn2c(=O)[nH]c3ccccc3c2=O)CC1)N1CCN(c2ccccc2)CC1 (stereo unspecified)	99	84	-2	103
Cc1cc(N=Cc2c[nH]c3ccccc23)ccc1Br	114	85	-39	.
CCN(CC)S(=O)(=O)c1ccc(O)c(C(=O)O)c1	96	82	-19	.

Following part.
SMILES	Sa growth inh	Sa growth inh second temp	HCMV NEC inh	GIV-Gai inh
COc1ccc(-c2noc(C3CCCN(C(=O)c4ccccc4)C3)n2)cc1 (stereo unspecified)	118	88	-1	98
O=c1cc(-c2ccccc2)c2ccc3c(c2o1)CN(Cc1ccc2c(c1)OCO2)CO3	106	83	-90	105
CCn1cnc(S(=O)(=O)N2CCC(C(=O)N3c4ccccc4CC3C)CC2)c1 (stereo unspecified)	.	.	-13	106
CN(C)c1ccncc1C(=O)Nc1cc(Cl)cc(Cl)c1	123	95	-11	104
Cc1cccc(-c2nc(NCCCN3CCOCC3)c3ccccc3n2)c1	123	68	.	148
CCOC(=O)c1ccccc1NC(=O)Cn1c(=O)c(CNc2ccccc2)cc2ccc(OC)cc21	.	.	-10	109
COc1ccc(OCCCC(=O)N2CCCC(C(N)=O)C2)cc1 (stereo unspecified)	86	87	-28	.
O=C(Nc1cccc(CCc2nc3ccccc3[nH]2)c1)c1cc(-c2ccncc2)nc2ccccc12	.	.	-34	105
O=C(Nc1ccncc1)C1(c2ccccc2)CCCC1	102	97	6	.
CCOC(=O)N1CCN(C(=O)C2CC(=O)N(c3ccc(OC)cc3)C2c2ccc(OC)cc2)CC1 (stereo unspecified)	68	92	.	111
CCCCN(C)C(=O)c1c[nH]c2ccc(S(=O)(=O)Nc3cccc(OC)c3)cc2c1=O	104	90	.	106
CN(C)c1ccc(C(=O)OCC(=O)C(C)(C)C)cc1	105	92	9	.
Cc1nn(-c2ccccc2)nc1CNC(=O)C1CC1	87	88	-55	108
COCCNC(=O)c1ccccc1NS(=O)(=O)c1ccc(F)cc1	104	95	-18	105
Cc1cc(=O)n2[nH]c(CN(C(=O)C(C)(C)C)c3ccc(Cl)cc3)nc2n1	.	.	-4	101
Cc1ccc(NC(=C(C#N)C#N)c2ccccc2)cc1	89	94	-7	.
O=c1c2ccccc2ncn1CCOc1ccc(Br)cc1	81	91	-30	.
CCOC(=O)c1c(C)oc2nc(C)nc(N3CCN(c4ccccc4F)CC3)c12	101	91	.	106
CN=c1scc(C)n1NC(=O)Nc1ccc(Cl)cc1	92	61	.	105
Cc1ccc(NC(=O)CC2NC3CCCCC3NC2=O)cc1C (stereo unspecified)	101	91	-13	96
CC(=O)NS(=O)(=O)c1ccc(-c2ccc(/C=C3/C(=O)N(CCCO)C(=O)C(C#N)=C3C)o2)cc1	95	86	.	109
CN(C)c1cncc(C(=O)O)c1	98	96	-13	110
COc1ccc(Nc2nnc(SCC(=O)c3cc(C)n(-c4nccs4)c3C)s2)cc1	105	73	10	.
COc1cccc(CNC(=O)C(C)n2nc(C)c3sc4ccccc4c3c2=O)c1 (stereo unspecified)	.	.	-5	107
CCc1ccc(NC(=O)N(Cc2ccc3c(c2)OCO3)C2CCN(CC)CC2)cc1	109	87	-24	99

The listing continues:
SMILES	Sa growth inh	Sa growth inh second temp	HCMV NEC inh	GIV-Gai inh
Cc1ccc2c(CC(=O)Nc3ccc(S(=O)(=O)Nc4nc(C)cc(C)n4)cc3)coc2c1	103	74	-5	106
CCOc1ccc(CNC(=O)C2CCN(c3nnc(-n4c(C)ccc4C)s3)CC2)cc1	102	81	0	103
COC(=O)CN1C(=O)/C(=C/c2ccc(OCc3ccccc3)c(OC)c2)SC1=S	97	82	.	103
O/N=C(/C(=N/O)c1ccco1)c1ccco1	93	95	-42	105
C#CCn1cc(/C=C(/C#N)C(=O)Nc2ccccc2)c2ccccc21	87	74	-37	110
COC(=O)/C(C#N)=C/c1ccc(C)s1	98	93	-115	112
CCOC(=O)/C(C#N)=C/Nc1nc2ccccc2nc1N1CCOCC1	78	93	-9	.
Cc1ccc(CNC(=O)C2CCC(=O)N2C2CCCCC2)cc1 (stereo unspecified)	92	93	-4	102
COc1ccc(-c2nnc3ccc(SCC(=O)NCCc4ccccc4)nn23)cc1OC	121	87	1	107
CCSCCOC(=O)C1=C(C)N(C)C(=O)NC1c1cc(Br)c(O)c(OC)c1 (stereo unspecified)	.	.	-19	105
O=C(CNc1ccc(F)cc1F)Nc1ccc2c(c1)OC(F)(F)O2	17	17	-11	.
CSc1nnc2c(n1)OC(c1cc3c(cc1Br)OCO3)Nc1ccccc1-2 (stereo unspecified)	.	.	-28	108
CCCc1nnc2sc(-c3ccccn3)nn12	.	.	-29	108
CC(C)SC1=NSC2=NC(=O)/C(=C\c3ccc(-c4cccc(C(=O)O)c4)o3)C(=N)N21	103	88	-49	106
CCNC(=O)C(C#N)=C1CCCCCC1	96	91	-7	97
COC(=O)c1sccc1N/C=C(\C#N)S(=O)(=O)C(C)(C)C	102	86	-16	105
CC(C)Cc1nnc(NC(=O)Nc2ccc3ccccc3n2)s1	.	.	-20	106
COc1cc(-c2ccno2)ccc1S(=O)(=O)N1CCN(c2cc(C)ccc2C)CC1	118	90	.	104
CCCCn1c2c(c(=O)[nH]c1=O)C(c1ccc(OC(F)F)cc1)C1=C(CCCC1=O)N2 (stereo unspecified)	95	93	-17	.
CCOc1ccc(NC(=O)CCCn2c(=O)[nH]c3ccccc3c2=O)cc1	119	90	-22	102
COc1ccc(NC(=O)Cn2c3ccccc3c(=O)c3cc(C)ccc32)cc1OC	.	.	-20	107
COc1cccc(-c2nc(COC(=O)C3=COCCO3)cs2)c1OC	106	88	-26	.
Nn1c(SCc2cn3ccccc3n2)nnc1C1CC1	93	93	-20	.
O=C(Nc1ccc(Br)cn1)c1sc2ccccc2c1Cl	104	85	.	99
CC1CCCCC1NC(=O)NC(=O)CSc1nnnn1-c1ccc(Cl)cc1 (stereo unspecified)	105	74	-17	.

(list continues)
SMILES	Sa growth inh	Sa growth inh second temp	HCMV NEC inh	GIV-Gai inh
COc1ccc(C(=O)CN2CCc3ccccc32)cc1	112	91	-2	.
CCOC(=O)C1CCN(S(=O)(=O)c2cc3c4c(c2)CC(=O)N4CCC3)CC1	131	87	.	98
Fc1ccc(Oc2nc(Oc3ccc(F)cc3)nc(N3CCSCC3)n2)cc1	100	94	-9	107
O=C(COc1ccc(Cl)cc1)NCC(c1cccs1)S(=O)(=O)c1ccc(F)cc1 (stereo unspecified)	86	91	.	99
CC(C)Sc1ccc2nnc(-c3ccccn3)n2n1	58	47	.	105
Cc1ccc(-n2nc(C)c3c(C)c(CCC(=O)NC(C)c4ccc5c(c4)OCCO5)c(C)nc32)cc1 (stereo unspecified)	100	95	.	102
COc1ccc(C(=O)N2CCn3c2nc2ccccc23)cc1OC	81	84	-8	93
CCCSc1nnc2c(n1)OC(C)(C)Nc1ccccc1-2	97	113	-8	101
